Screening data: PubChem, SRMLSC
H5N1 antiviral – MDCK cell protection from H5N1 avian flu. cytopathic effect, luminescence, 72 h; stronger effect = higher value; no value below 0 was filed and about half of the inactive calls have no number; reference of the scale not given here. 96,000 compounds, 0.07% hits. inhibition, % at 50 µM; in the data active = inhibition above about 25%
An asterisk follows results filed as active; i = inactive. This is a subset; the hit share may differ from the screen's.

smiles,H5N1 antiviral
CC1CCCN(c2ccc(/C=C(\C#N)c3nn(-c4ccccc4)c(N)c3C#N)cc2[N+](=O)[O-])C1 (stereo not drawn),i
Cc1ccc(NCCC(=O)c2cccs2)cc1Cl,i
COCCn1c(SCC(=O)NCc2ccco2)nnc1-c1c[nH]c2ccccc12,1.3
Cc1c(Cl)cccc1NC(=O)c1cc(C2CC2)on1,i
Cc1ccccc1-c1nc(CS(=O)(=O)CC(=O)Nc2cc(F)ccc2F)c(C)o1,i
CCCCN(CCCC)c1nc(OC)nc(-n2nnc(C(C)=O)c2C)n1,1.0
CC(=O)c1ccc(N=Cc2c(O)n(-c3cc(Cl)ccc3N3CCOCC3)c(=O)c3ccccc23)cc1,i
Cc1sc2c(c1C)c(=O)n(-c1cccc(C(F)(F)F)c1)c(=O)n2CC(=O)NCc1ccco1,i
CCN1CCN(c2nc(C)c3c(n2)CCCC3=O)CC1,1.1
Cc1cc2ncn(S(=O)(=O)N3CCOCC3)c2cc1C,i
CCCOc1ccc(Cl)cc1CN1CCOCC1,i
CCCN1C(=O)C(NC(C)=O)c2cc(OC)ccc21 (stereo not drawn),i
Cc1c(N=Cc2ccc(-c3ccc(Cl)cc3)o2)c(=O)n(-c2ccccc2)n1C,i
COC(=O)COc1ccc(Oc2nc(SC)nc(N(C)C)n2)nn1,0.8
O=S(=O)(N/N=C1\CC(c2ccccc2)Oc2ccccc21)c1ccccc1 (stereo not drawn),0.7
O=Cc1ccc(-c2ccccc2OC(F)(F)F)o1,i
CCOC(=O)c1ccc(Oc2c(C)oc3c(CN4CCN(C)CC4)c(O)ccc3c2=O)cc1,0.0
c1csc(-c2nnc3ccccn23)c1,3.2
CC(C)c1ccc(OCC(=O)NCc2ccco2)cc1,0.6
Cc1cccc(-n2nnc(C(=O)NC3CCCc4ccccc43)c2N)c1 (stereo not drawn),i
NS(=O)(=O)c1ccc(N2N=C(c3ccccc3)CC2c2ccc(F)cc2)cc1 (stereo not drawn),0.1
COc1ccc(Cn2cc(F)c(=O)n(CCC(C)C)c2=O)cc1[N+](=O)[O-],1.0
Clc1ccc(-n2nnnc2CN2CCCCC2)cc1Cl,0.6
O=C(CSc1nc(O)cc(=O)[nH]1)Nc1ccc2c(c1)CCC2,i
COC(=O)CCc1nc2ccccc2[nH]c1=O,i

Continued:
smiles,H5N1 antiviral
Clc1ccccc1Cn1nnc2c(N3CCCC3)ncnc21,i
COc1cccc(-c2cc(C(F)(F)F)nc(-n3cccn3)n2)c1,1.0
Cc1cc(C(=O)NCCN2CCCCC2C)n(-c2ccccc2)n1 (stereo not drawn),0.7
COc1ccc(N(C)C(=S)Oc2ccc(C(=O)Nc3ccccc3)cc2)cc1,i
CCn1c(SCC(=O)Nc2nonc2C)nnc1-c1ccco1,0.1
CN1CCN(c2ccc(NC(=O)CSc3ccccc3)cc2F)CC1,0.3
Nc1cc2c(cc1C(=O)c1ccccc1)OCCO2,1.1
N#CCc1nnc2n1-c1ccccc1CCC2,i
N#CC1=C(N)OC2=C(C(=O)CCC2)C12C(=O)N1CCCc3cccc2c31 (stereo not drawn),i
CC1CN(CC(=O)c2c(N)n(Cc3ccccc3)c(=O)n(C)c2=O)CC(C)O1 (stereo not drawn),i
Cc1ccc(/C=c2/sc3nnc(-c4ccccc4Cl)n3c2=O)o1,0.7
CN(C)c1ccnc2sc3c(=O)n(Cc4ccccc4)cnc3c12,0.3
Cc1ccnc(NS(=O)(=O)Cc2ccccc2)c1,0.4
Cc1cc(/C([O-])=C(/C(=S)Nc2ccc(F)cc2)[n+]2ccccc2)c(C)n1-c1ccc(F)cc1,i
Cc1nc(NC(=O)c2ccc(F)cc2)sc1C(=O)Nc1ccc2c(c1)CCC2,i
CCOC(=O)c1cc2c(=O)n3ccccc3nc2n(Cc2ccco2)c1=NC(=O)c1cccnc1,0.1
Cc1nc2ccc(NC(=O)N3CCC(c4ccccc4)C3)cc2nc1C (stereo not drawn),i
Cc1nnc(NC(=O)c2oc3c(ccc4ccccc43)c2C)s1,0.6
CCOC(=O)c1c(CN2CCN(c3ccccc3)CC2)oc2ccc(O)cc12,i
CC(=O)NC(=O)Nc1sc(=S)n(C)c1C,0.0
COc1ccccc1NC(C)=O,0.6
CC(=O)c1ccccc1NC(=O)CSc1nnc2ccccn12,1.4
CCOC(=O)C1CCN(S(=O)(=O)c2ccc(OC)c(Cl)c2Cl)CC1,0.9
COc1ccc(CN2CCN(C(=O)CC(C)C)CC2)c(OC)c1OC,0.1
CN(C)/C=C/C(=O)c1ccccc1F,i

The list goes on.
smiles,H5N1 antiviral
Cc1cc(N2CC34C=CC(O3)C(C(=O)O)C4C2=O)no1 (stereo not drawn),i
COc1cccc(OC)c1C(=O)N1CCN(S(=O)(=O)c2ccccc2)CC1,0.1
COc1ccc(/C=N\NC(=O)c2cc(OCC(F)(F)F)ccc2OCC(F)(F)F)cc1,0.3
Cc1ccc(/C=C/c2nnc(-c3cccs3)o2)cc1,1.7
COc1ccc(C(C)(C)C)cc1NC(=O)c1c(C)noc1C,1.5
O=C(CCCCCn1c(SCc2ccncc2)nc2ccccc2c1=O)NCc1ccco1,6.1
O=C(CCCN1C(=O)c2ccccc2C1=O)Nc1sc2c(c1C(=O)NCc1ccco1)CCC2,0.2
CC(C)CC(=O)NC(Nc1ccccc1F)C(Cl)(Cl)Cl (stereo not drawn),0.9
O=C(NC1CCCC1)c1ccc(CN2CCOCC2)cc1,i
CCOC(=O)C1C2C=CC3(CN(C4CCCC4)C(=O)C13)O2 (stereo not drawn),0.1
CCOC(=O)Cc1nnc(NC(=O)Nc2ccccc2)s1,i
O=C(NCc1ccc2c(c1)OCO2)c1cc(-n2cnnc2)ccc1Cl,0.7
Cc1cc2ccccc2n1CCNC(=O)C1CCCCC1,i
O=c1[nH]n(Cc2ccccc2)c(=O)c2ccccc12,1.5
CCOC(=O)N1CCC(=NNS(=O)(=O)c2cccc([N+](=O)[O-])c2)CC1,i
CCOC(=O)/C=c1\s/c(=C\c2ccc3cc(OC)ccc3c2)c(=O)n1CC(=O)NCC1CCCO1 (stereo not drawn),i
Clc1cccc(-c2nc(-c3ccccn3)no2)c1,i
CCN=c1sc(C(=O)OC)cc(=O)n1CC,0.3
O=C(CCc1ccc(S(=O)(=O)N2CCOCC2)cc1)Nc1cc(Cl)ccc1N1CCOCC1,0.1
Nc1cc(OC(=O)c2ccccc2Br)nn1S(=O)(=O)c1ccccc1,0.7
CC(C)CCNC(=O)CC1C(=O)N(Cc2ccccc2)C(C)c2nc3ccccc3n21 (stereo not drawn),i
O=C(c1cn(-c2ccccc2)nc1-c1ccc(F)cc1)N1CCOCC1,i
O=C(OCCN(CCOC(=O)c1ccncc1)S(=O)(=O)c1cccs1)c1ccncc1,0.1
Cc1ccc2nc(-c3ccccc3)nc(SC(C)C(=O)NCc3cccs3)c2c1 (stereo not drawn),1.3
Cn1c2c(c(=O)n(C)c1=O)CN(CCN1CCNCC1)CN2,i

Three compounds already listed, ordered by molecular weight, low to high.
smiles,H5N1 antiviral
CCN=c1sc(C(=O)OC)cc(=O)n1CC,0.3
O=C(c1cn(-c2ccccc2)nc1-c1ccc(F)cc1)N1CCOCC1,i
O=C(CCCCCn1c(SCc2ccncc2)nc2ccccc2c1=O)NCc1ccco1,6.1

Retrieved by compound from the list above (2):
smiles,H5N1 antiviral
CCOC(=O)/C=c1\s/c(=C\c2ccc3cc(OC)ccc3c2)c(=O)n1CC(=O)NCC1CCCO1 (stereo not drawn),i
Cc1cc(N2CC34C=CC(O3)C(C(=O)O)C4C2=O)no1 (stereo not drawn),i

Next part
smiles,H5N1 antiviral
O=C(Nc1nc2c(s1)CCCC2)c1cc2n(n1)C(C(F)(F)F)CC(C1CC1)N2 (stereo not drawn),i
O=C(Nc1ccc2snnc2c1)Nc1cccc2ccccc12,i
C=CCNc1nc(NCC)nc(N2CCOCC2)n1,3.0
O=C(Nc1ccc2c(c1)OCO2)c1cnn2c(C(F)(F)F)cc(-c3ccco3)nc12,1.4
CCOc1ccc(S(=O)(=O)NCc2cccs2)cc1,1.9
Cc1c(C2OC(=O)C3(CCCCC3)C(=O)C2(C)C)c(=O)n(-c2ccccc2)n1C (stereo not drawn),i
CCN(CC)C(=O)CSc1nc2cc3c(cc2c(=O)n1Cc1ccc2c(c1)OCO2)OCO3,0.1
C=CCOC(=O)Nc1ccc(Cl)cc1NC(=O)OCC=C,i
O=C(NCc1ccco1)c1cccn2c(=O)c3cc4ccccc4cc3nc12,0.6
O=C(Cc1ccc(-c2ccccc2)cc1)N1CCOCC1,1.9
CCOc1cccc(C2C(C(=O)c3ccc(C)o3)=C(O)C(=O)N2c2nccs2)c1 (stereo not drawn),i
COc1cc(Cl)c(S(=O)(=O)NCc2cccnc2)cc1Cl,0.7
Nn1c(-c2cccs2)nc2sc3c(c2c1=O)CCCC3,0.2
CC1CCCN(c2ccc(C(=O)NCCc3ccccc3)cn2)C1 (stereo not drawn),1.3
CCOC(=O)CC1C(=O)NCCN1S(=O)(=O)c1cc(Cl)c(Cl)cc1Cl (stereo not drawn),1.6
CN1c2ccccc2C(C)(C)[C@]12C=Cc1cc(O)ccc1O2,1.2
CSc1nc2nc(-c3ccccc3)cc(=O)n2[nH]1,i
CC(=O)N1CCCc2cc(S(=O)(=O)CCC(=O)N3CCN(c4cccc(C)c4)C(C)C3)ccc21 (stereo not drawn),0.3
Nc1nc2ccccc2n1/N=C/c1ccc(Br)cc1,i
O=C(NCCc1ccccc1)c1ccc2nc(-c3ccco3)c(-c3ccco3)nc2c1,0.5
COc1ccc(C(=O)Nc2cc(-c3nn4c(C)nnc4s3)ccc2C)cc1,1.2
CC(=O)Nc1cccc(NC(=O)C2CCCN2C(=O)Nc2ccccc2C)c1 (stereo not drawn),i
Cc1cc2cc(C(c3nnnn3CC3CCCO3)N3CCCc4ccccc43)c(=O)[nH]c2cc1C (stereo not drawn),i
Clc1ccc(Cn2ncc3c(NCCN4CCOCC4)ncnc32)cc1,i
Cn1c(-c2ccc(C=O)s2)nc2ccccc21,0.2

Laid out differently: results already given
mol: CN1c2ccccc2C(C)(C)[C@]12C=Cc1cc(O)ccc1O2
  H5N1 antiviral: 1.2

mol: CCOC(=O)CC1C(=O)NCCN1S(=O)(=O)c1cc(Cl)c(Cl)cc1Cl (stereo not drawn)
  H5N1 antiviral: 1.6

Next part.
smiles,H5N1 antiviral
CSCCC(NS(=O)(=O)c1ccc2c(c1)oc(=O)n2C)C(=O)NC1CCC(C)CC1 (stereo not drawn),i
Nc1ccc(Oc2ccc(Cl)cc2)cc1,i
Cc1cc(NC(=O)c2cccc(S(=O)(=O)N(C)C)c2)n(-c2ccccn2)n1,0.7
COC(=O)c1cc(OC)c(OC)cc1NC(=O)CN1CCOCC1,1.4
CCN(CC)S(=O)(=O)c1ccc2c(c1)nc(SCC(=O)N1CCCCCC1)n2-c1ccc(OC)cc1,0.8
O=C1C2CCN(CC2)[C@@H]1Cc1ccc2ccccc2c1O,i
CC(C)[C@H](NC(=O)c1cccc(S(=O)(=O)N2CCCC2)c1)c1nc2ccccc2[nH]1,i
Cc1cccc(NC(=O)CCc2ccc(C)o2)c1,2.9
Cn1nc(-c2ccc(N3CCCCC3)c(NC(=O)c3ccco3)c2)c2ccccc2c1=O,5.8
CCCCNC(=O)CC1C(=O)N(Cc2ccccc2)C(C)c2nc3ccccc3n21 (stereo not drawn),i
C=CCc1cccc2cc(C(=O)NCc3ccc(C(=O)OCC)o3)c(=O)oc12,i
COc1ccc(N=C2SC(CC(=O)Nc3ccc(OC)cc3OC)C(=O)N2C)cc1 (stereo not drawn),0.3
O=C(Nc1cccc(F)c1)C1CCN(C(=O)c2ccccc2Cl)CC1,i
CCC(c1nnnn1C1CCCC1)N1CCN(C(=O)c2ccco2)CC1 (stereo not drawn),1.4
Cc1sc2ncnc(Sc3nnnn3-c3ccc(Cl)cc3)c2c1C,9.4
C/C(=N\NC(=O)c1ccccc1C)c1ccc(N2CCOCC2)cc1,i
NC(=O)C1CCC(NC(=O)OCc2ccccc2)CC1 (stereo not drawn),0.4
Cc1ccc(OCC(O)Cn2c(N3CCOCC3)nc3c2c(=O)[nH]c(=O)n3C)cc1 (stereo not drawn),i
CCOC(=O)C1=C(C)N[C@@]2(O)c3ccccc3C(=O)[C@@]12O,1.4
Cc1ccc(C)c(S(=O)(=O)N2C(=S)NC(=O)C2CC(C)C)c1 (stereo not drawn),0.1
CCCn1nc(C(=O)NCC(C)(C)N2CCOCC2)c2ccccc2c1=O,1.0
O=C(OCC(=O)N1CCOCC1)C(c1ccccc1)c1ccccc1,i
O=C(c1c(Cl)nc2sccn12)N(C(=O)c1c(Cl)nc2sccn12)c1ccc(Cl)cn1,6.2
Cc1nnc(N(Cc2ccco2)C(=O)c2ccno2)s1,i
COc1ccc(NC(=O)CC2C(=O)N(CCc3ccccc3)C(=S)N2Cc2cccnc2)cc1 (stereo not drawn),i

(cont.)
smiles,H5N1 antiviral
Cc1ccccc1OCC1Cn2c(nc3c2c(=O)[nH]c(=O)n3C)O1 (stereo not drawn),1.0
COc1ccc(-n2ncc3c(N4CCc5ccccc54)ncnc32)cc1,i
CCN(CC)S(=O)(=O)c1ccc(C(=O)OCC(=O)c2ccc3c(c2)NC(=O)CO3)cc1,i
Clc1ccc(-c2nnc3ccccn23)cc1,0.5
Cc1cc(C)c(NC(=O)CSc2nnc(-c3ccncc3)n2Cc2ccco2)c(Cl)c1,0.2
CSCCC(/C(O)=C(\C#N)c1nc2ccccc2[nH]1)N1C(=O)c2ccccc2C1=O (stereo not drawn),i
O=c1ccnc(NCCc2ccccc2)[nH]1,0.1
